KCNQ2 block: KCNQ2 channel blockers in CHO-K1 cells – cell-based, FluxOR thallium flux, B-score, primary screen (AID 2156). O88943. 20 min; stronger effect = lower value; only compounds with negative scores are shown here; some inactives read as strong as hits. B-score at 10 µM. 310,000 compounds, 1.1% hits;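 active = fluorescence ratio B-score at most minus 3 library SDs, with starting brightness B-score within 2 library SDs, cut at about -5.5 in these data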
Target sequence (O88943 whole entry, looked up): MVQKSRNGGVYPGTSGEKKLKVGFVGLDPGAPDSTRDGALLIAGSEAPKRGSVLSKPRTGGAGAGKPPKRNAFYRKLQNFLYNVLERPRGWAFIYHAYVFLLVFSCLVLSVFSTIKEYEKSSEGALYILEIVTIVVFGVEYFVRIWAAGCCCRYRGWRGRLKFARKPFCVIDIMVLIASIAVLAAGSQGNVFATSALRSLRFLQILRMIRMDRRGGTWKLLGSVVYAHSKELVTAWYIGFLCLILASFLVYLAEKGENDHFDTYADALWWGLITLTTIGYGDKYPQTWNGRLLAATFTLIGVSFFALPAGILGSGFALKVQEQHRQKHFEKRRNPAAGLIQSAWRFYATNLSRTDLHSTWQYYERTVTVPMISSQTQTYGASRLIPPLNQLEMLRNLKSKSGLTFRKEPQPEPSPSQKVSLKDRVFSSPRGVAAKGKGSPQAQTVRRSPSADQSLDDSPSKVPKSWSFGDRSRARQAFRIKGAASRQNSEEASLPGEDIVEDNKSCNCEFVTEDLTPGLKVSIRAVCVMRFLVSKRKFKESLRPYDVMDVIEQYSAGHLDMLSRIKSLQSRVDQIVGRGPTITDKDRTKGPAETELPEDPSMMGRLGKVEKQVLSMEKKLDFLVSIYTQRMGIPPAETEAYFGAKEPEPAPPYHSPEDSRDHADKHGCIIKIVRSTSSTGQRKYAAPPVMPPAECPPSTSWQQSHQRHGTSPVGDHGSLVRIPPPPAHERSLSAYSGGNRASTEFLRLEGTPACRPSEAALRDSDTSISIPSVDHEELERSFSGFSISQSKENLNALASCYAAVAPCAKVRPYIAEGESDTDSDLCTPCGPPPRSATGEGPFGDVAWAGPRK
KCNQ2 block baseline: second read-out of KCNQ2 block, no call of its own (marks repeat the call); B-score; measured here: initial fluorescence intensity artifact check;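 brightness before thallium and not channel activity; 0 = typical well and far values either way flag optical interference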
* marks the source's active call; other numbers are inactive results; i = inactive.

KCNQ2 block,KCNQ2 block baseline,canonical_smiles
i,-0.22,COc1ccc(-c2n[nH]c(C)c2-c2cscn2)c(O)c1
-8*,0.31*,CCn1nc(C(=O)Nc2ccccc2N2CCCC2)c2ccccc2c1=O
i,0.53,Cc1cc(NO)c(C(C)C)cc1N=O
i,0.41,COc1ccc(CN2[C@@H](CC(=O)O)c3cc(C(F)(F)F)ccc3S2(=O)=O)cc1
i,-2.4,COc1ccc(CN2CCN(C(=O)c3cc(-c4cccnc4)nc4ccc(Cl)cc34)CC2)c(OC)c1OC
i,0.19,CC(C)Sc1cc(N2CCCC2)nc(-c2ccccc2Cl)n1
i,-0.04,CC(C)C1CC(CCNCc2ccc3c(c2)OCO3)(c2ccccc2)CCO1 (configuration not stated)
i,-0.47,CC(=O)c1cccc(NC(=O)C(=O)Nc2cccc3ccccc23)c1
i,-0.77,CCOC(=O)C(CC(C)C)CP(=O)(O)CNC(=O)OCc1ccccc1 (configuration not stated)
i,-0.41,Cc1ccc(-c2nsc(SCC(=O)NCC3CCCO3)n2)cc1 (configuration not stated)
i,-0.4,CCOC(=O)c1ccc(S(=O)(=O)N2CC(=O)Nc3ccccc32)cc1
i,1.3,CCOc1ccc(NC(=O)COc2nsnc2N2CCOCC2)cc1

Fetched by structure from the list above, seven records:
KCNQ2 block,KCNQ2 block baseline,canonical_smiles
i,-0.22,COc1ccc(-c2n[nH]c(C)c2-c2cscn2)c(O)c1
i,-0.4,CCOC(=O)c1ccc(S(=O)(=O)N2CC(=O)Nc3ccccc32)cc1
i,-0.47,CC(=O)c1cccc(NC(=O)C(=O)Nc2cccc3ccccc23)c1
i,0.19,CC(C)Sc1cc(N2CCCC2)nc(-c2ccccc2Cl)n1
i,-0.41,Cc1ccc(-c2nsc(SCC(=O)NCC3CCCO3)n2)cc1 (configuration not stated)
i,0.53,Cc1cc(NO)c(C(C)C)cc1N=O
-8*,0.31*,CCn1nc(C(=O)Nc2ccccc2N2CCCC2)c2ccccc2c1=O

Quoted from the entries so far for reference:
KCNQ2 block,KCNQ2 block baseline,canonical_smiles
i,-0.4,CCOC(=O)c1ccc(S(=O)(=O)N2CC(=O)Nc3ccccc32)cc1
i,1.3,CCOc1ccc(NC(=O)COc2nsnc2N2CCOCC2)cc1

(cont.)
KCNQ2 block,KCNQ2 block baseline,canonical_smiles
i,1.8,CCOc1ccc(S(=O)(=O)Nc2cc(OC)ccc2OC)cc1
i,2.4,Cc1ccc(CN2CCN(C3CCOCC3)CC2CCO)cc1 (configuration not stated)
i,-0.66,CC(=O)Nc1ccc(NC(=O)CSc2nnc(NC(=O)c3cccc(F)c3)s2)cc1
i,-1.6,CCN(CC(=O)NCc1ccc(Cl)cc1)C(=O)CCOc1ccc(C)cc1
i,-1.4,O=C/C(=C\Nc1ccc(Cl)cn1)c1nc2cc(Cl)ccc2o1
i,0.22,Cn1c(SCc2ccc(Br)cc2)nnc1-c1ccccn1
i,0.22,c1ccc(-c2nnsc2Sc2ccccn2)cc1
i,-0.76,CSc1ccc(S(=O)(=O)N2CCN(Cc3ccc4c(c3)OCO4)CC2)cc1
i,0.79,COc1ccccc1N1CCN(S(=O)(=O)c2ccc3c(c2)CC(C)N3C(C)=O)CC1 (configuration not stated)
i,0.86,CC(C)Oc1ccc(OCCNC2CCCC2)cc1
i,-0.63,Cc1cc(Cl)ccc1OCC(=O)NNC(=O)C1CSC2(C)CCC(=O)N12 (configuration not stated)
i,0.71,Cc1nn(-c2ccccn2)c2nc(-c3cccs3)cc(C(=O)NCc3ccco3)c12
i,-0.35,Cc1c(-n2cc(C(=O)c3cc(Cl)ccc3O)cc(C#N)c2=O)c(=O)n(-c2ccccc2)n1C
i,1.2,O=C(COc1cccc(Cl)c1)N/N=C\c1cc2ccccc2nc1Cl
i,0.7,CCCCCn1c(CCC(=O)Oc2ccccc2OC)nc2c1c(=O)[nH]c(=O)n2CCCC
-7.3*,1.2*,Cc1cc(Cl)ccc1OC(C)C(=O)NCCCCc1ccccc1 (configuration not stated)
i,-0.1,c1ccc(-c2nnc(NC3=NCCC3)o2)cc1
i,-0.42,Cc1cc(C)cc(NC(=O)COC(=O)COc2cccc3c2OC(C)(C)C3)c1
i,0.86,CN(/N=C/C=C/c1ccccc1)c1cc(=O)n(C)c(=O)[nH]1
i,0.91,C=CCN1C(=O)/C(=C2/Sc3ccc(OC)cc3N2CC)SC1=S
i,-1.1,Cc1ccc(NC(=O)C(=O)C2C(=O)Nc3ccccc32)cc1 (configuration not stated)
i,-0.2,CSCC(C)N1CCC(CCC(=O)NC2CC2)CC1 (configuration not stated)
i,1.4,COc1cc(OC)cc(N2C(=O)CSCC2=O)c1
i,0.53,COc1cc(CN2CCN(C(=O)c3cccc4ccccc34)CC2)cc(OC)c1O
i,2.7,O=S(=O)(c1ccccc1)N1CCN(CCc2ccccc2)CC1
i,-1.3,CN1C2CCC1CC(NS(=O)(=O)c1cccc(C(F)(F)F)c1)C2 (configuration not stated)
i,0.65,Cc1ccc2sc3ccc(NC(=O)c4ccccc4Cl)cc3c(=O)c2c1
i,2.1,O=C(Nc1ccc2c(c1)CCC2)C1CCN(c2ncccn2)CC1
i,4.9,CC[n+]1ccccc1/C=C/c1ccc(N(C)C)cc1
i,-0.49,C=CCN(CC=C)C(=O)C(=O)c1ccn(-c2c(C)csc2C(=O)OC)c1
i,0.64,CSc1ccc(NS(=O)(=O)c2ccc(-n3cnnn3)cc2)cc1
i,0.23,O=C(NCc1ccccc1)c1csc(-c2cccnc2)n1
i,-0.38,NNC(=O)c1[nH]c2ccccc2c1-c1ccccc1
i,2.5,Cc1c(N2C(=O)CS/C2=N\N=C\c2ccccc2O)c(=O)n(-c2ccccc2)n1C
i,0.05,N#CCc1nc(C(c2ccccc2)c2ccccc2)no1
i,0.06,CCOc1ccc(NC(=O)CN(C)C(=O)CN2C(=O)NC3(CCCC3)C2=O)cc1OCC

Entries above that have a thiophene ring, fused or not, in the order listed:
KCNQ2 block,KCNQ2 block baseline,canonical_smiles
i,0.71,Cc1nn(-c2ccccn2)c2nc(-c3cccs3)cc(C(=O)NCc3ccco3)c12
i,-0.49,C=CCN(CC=C)C(=O)C(=O)c1ccn(-c2c(C)csc2C(=O)OC)c1

Entries shown so far that contain a cyano group (two):
KCNQ2 block,KCNQ2 block baseline,canonical_smiles
i,-0.35,Cc1c(-n2cc(C(=O)c3cc(Cl)ccc3O)cc(C#N)c2=O)c(=O)n(-c2ccccc2)n1C
i,0.05,N#CCc1nc(C(c2ccccc2)c2ccccc2)no1

Other records
KCNQ2 block,KCNQ2 block baseline,canonical_smiles
i,1.4,CCCN(C(=O)CCCSc1nc2ccccc2[nH]1)c1c(N)n(Cc2ccccc2)c(=O)[nH]c1=O
i,0.41,C/C(=N\OC(=O)c1ccccc1)c1cc(-c2ccc(Cl)cc2)no1
i,0.81,COc1ccc(C(=O)CC(=O)C(=O)Nc2ccccc2Cl)cc1
i,-0.03,Cc1ccccc1S(=O)(=O)Oc1ccc2ccc(O)cc2c1
i,-0.13,CCOc1ccc(C2NC(=O)C(C#N)=C(S)N2c2ccc(C)cc2)cc1OC (configuration not stated)
i,-0.8,COc1ccc(-n2ncc3c(Nc4cccc(C)c4)ncnc32)cc1
i,-0.88,CCOC(=O)C1CCCN(C(=O)c2ccco2)C1 (configuration not stated)
i,-0.93,COc1ccc(S(=O)(=O)Nc2ccc3c(c2)OCO3)cc1C(=O)O
i,-0.55,Cc1ccc(/C=C/C2=NN(Cc3ccccc3Cl)C(=O)CC2)cc1
i,-0.31,O=C(Nc1ccc(Cl)cn1)c1ccccc1SCc1ccccc1
i,0.15,O=C(NN1CC(=O)N(c2cc(Cl)cc(Cl)c2)CC1=O)c1cccs1
i,0.29,COc1ccc(C2=NN(Cc3c(F)cccc3Cl)C(=O)CC2)cc1
i,-1.7,O=[N+]([O-])c1cccc(/C=C/c2ccccn2)c1
i,-0.22,Nc1nnc(SCc2cccnc2)s1
i,-1.5,Cc1cc(=O)c(C(=O)O)cn1Nc1ccc(Cl)cc1
i,-1.3,O=C(Nc1cccc([N+](=O)[O-])c1)c1ccc2c(c1)C(=O)N(c1ccccn1)C2=O
i,-1.2,CCCCC1=CC2=CC(=O)C(C)(OC(=O)CC)C(=O)C2=CN1c1ccc(OC)cc1 (configuration not stated)
i,-1.5,COC1OC(CO)C(O)C(O)C1O (configuration not stated)
i,0.18,O=C(Oc1ccc(Cl)c2ccccc12)N1CCCCC1
i,-0.2,O=C(CCCNC(=O)c1ccc(Cl)cc1)Nc1ccccc1C(F)(F)F
i,-0.16,CC(C)(C)C(=O)c1cnc(Nc2ccccc2Cl)s1
i,0.12,COCCn1ccc2c(OCC(=O)NCc3ccc(C)cc3)cccc2c1=O
i,-1.1,COc1ccc2ccc3c(c2c1)N=C[C@]1(O3)N(C)c2ccccc2C1(C)C
i,-0.01,CC1CCCCN1CC(O)COCc1ccc(Cl)cc1 (configuration not stated)
i,-0.74,Cc1ccc(S(=O)(=O)NC(=O)c2ccc(-c3ccc(C)c4ccccc34)o2)cc1
i,-1.3,Cc1cccnc1CCNC(=O)C1CCC(=O)N(Cc2cccc(F)c2)C1 (configuration not stated)
i,-0.31,CCN(CC)CCNC(=O)CS(=O)Cc1nc(-c2ccc(Cl)cc2)oc1C (configuration not stated)
i,1.8,Cc1cc(NC(=O)CSc2nc(CC(C)(C)C)nc3c2c(=O)n(C)c(=O)n3C)no1
-7.3*,-0.98*,CCOC(CCn1c(SCc2cccc([N+](=O)[O-])c2)nc2ccccc2c1=O)OCC
i,-1.2,O=C1OC(/C(=C\Nc2ccccc2)[N+](=O)[O-])c2ccccc21 (configuration not stated)
i,0.56,CC(C)NC(=O)c1onc(CSc2ccccc2F)c1C(=O)O
-13*,0.17*,CCOc1cc(CNCCO)cc(Br)c1OCc1ccc(Cl)cc1Cl
i,2.2,O=C(COc1ncnc2sccc12)N1CCN(C(=O)c2ccco2)CC1
i,-0.65,CC(C)c1ccc(NC(=O)COC(=O)/C=C/c2cccc(Br)c2)cc1
i,-0.01,C=CCNc1ccc(N2C(=O)C3CCC(C)CC3C2=O)cc1[N+](=O)[O-] (configuration not stated)
i,-0.71,Cc1ccc(C(NC(=O)N2CCCC2)C(Cl)Cl)cc1F (configuration not stated)
i,-1.4,COC(=O)c1cn[nH]c1NC(=S)Nc1ccccc1C
i,1.1,Cc1cc(C)nc(N2CCCC(C(=O)Nc3nnc(C(C)(C)C)s3)C2)n1 (configuration not stated)
i,-0.11,COc1ccc(C(=O)NC(=S)NC2CCCCC2)cc1
i,-0.92,CN(Cc1ccccc1)C(=O)CC(=O)N(C)Cc1ccccc1
i,0.71,CCc1ccccc1NC(=O)NNS(=O)(=O)c1cc(C)ccc1C
i,-0.88,COc1ccc(CSc2nncn2C)cc1F
i,-3,CCC1=[N+]([O-])C(C)(/C(C)=N\O)N(O)C1(C)C (configuration not stated)
i,0.68,Cc1ccc2c(c1)C(=O)CCN2
i,1.9,CCc1cc(-c2n[nH]c(C)c2-c2nc3ccccc3s2)c(O)cc1OCC(=O)NN
i,-0.01,CCc1ccccc1NNC(=O)c1cc(C)on1
i,-0.73,CC(/C=C/c1ccco1)=N/NC(=O)Cc1cccs1
i,1.6,Cc1nc2cc(C(=O)O)ccc2n1-c1ccc(F)cc1F
i,0.41,CC(C)C[C@H]1CN=C(Nc2ccccc2)N1CCCCc1ccccc1
i,-0.6,CCc1ccc(NC(=O)c2sccc2-n2cccc2)cc1
i,1.1,COCP(=O)(c1ccccc1)c1ccccc1
i,0.01,O=C(NCc1nc2ccccc2[nH]1)c1ccc(Cl)c(S(=O)(=O)N2CCCC2)c1
i,-0.38,O=c1c(-c2ccc(Br)cc2)[n+]([O-])c2ccccc2n1OCc1ccccc1
i,-0.07,CCOC(=O)COc1ccc(-c2nnc(-c3ccccc3)o2)cc1
i,0.96,COc1ccc(N2CCN(c3nc4c(C)cccn4c(=O)c3C=C(C#N)C#N)CC2)cc1
i,-0.18,CC(=O)Nc1ccc(NC(=O)CSc2nccn2Cc2ccccc2)cc1
i,0.65,COc1ccccc1C(=O)NC1CCN(C(=S)NCCc2ccccc2)CC1
i,-0.87,O=C(NNc1nc2c(F)cc(F)cc2s1)C1=COCCO1
i,0.18,CCOC(=O)C(CC)/C(C)=N/NC(=O)c1ccccc1[N+](=O)[O-] (configuration not stated)
i,-0.46,Cc1oc(-c2ccc(Cl)cc2)nc1CN1CCC(C(=O)N2CCc3ccccc3C2)CC1

Next section
KCNQ2 block,KCNQ2 block baseline,canonical_smiles
i,-1.3,Cc1ccc(-n2c(-c3ccccc3)c[n+]3c2CCC3)cc1
i,-1.3,Cc1cc(C)c(C(=O)COC(=O)c2cc([N+](=O)[O-])ccc2NCCO)cc1C
i,-0.09,CCn1cc(C(=O)N2CCN(Cc3ccc4c(c3)OCO4)CC2)c2cc(OC)c(OC)cc2c1=O
i,-0.08,Cc1c(C(=O)O)oc2c3c(ccc12)OCCO3
i,1,Cc1ccc(-c2cc(C(=O)Nc3ccncc3)c3ccccc3n2)cc1
i,-1.4,CN1CCN(C(=O)CN(C)S(=O)(=O)c2cc(Cl)ccc2Cl)CC1
i,-0.75,CCOc1ccc2nc(NS(=O)(=O)Cc3ccccc3)sc2c1
i,0.01,O=C(O)CCC(=O)NNc1nc(-c2ccccc2)c2cc(Cl)ccc2n1
i,-1.6,Cc1nc2c(=O)n(C)c(=O)n(C)c2nc1Cl
i,0.55,Cn1cnc2c(N/N=C/c3cccs3)ncnc21
i,-1.7,COc1ncnc2c1N[C@@](C)(O)c1c(F)c(F)c(F)c(F)c1S2
i,5.7,CN1CCN(CCCN(Cc2ccco2)C(=S)Nc2ccc(Cl)cc2)CC1
i,2.7,Cc1cc(C)c2nc(N3CCN(C(=O)c4cccs4)CC3)sc2c1
i,1.4,COc1ccc(-c2ccc(/C=N/N3C(=O)C4C5C=CC(C6CC56)C4C3=O)o2)c([N+](=O)[O-])c1 (configuration not stated)
i,0.07,CC1CC(O)(CC(O)(c2ccccc2)c2ccccc2)C(C)CN1C (configuration not stated)
i,-0.06,COC(=O)C(CC(C)C)NC(=O)c1ccc([N+](=O)[O-])c(C)c1 (configuration not stated)
i,-0.36,CCCCn1c(N)c(N(CCC(C)C)C(=O)C2CC(=O)N(c3ccc4c(c3)OCCO4)C2)c(=O)[nH]c1=O (configuration not stated)
i,0.88,CCCCc1nnc(NC(=O)CSc2nc(=O)cc(N)n2-c2cccc(C)c2)s1

Some of the compounds tested. The share of hits here may be higher or lower than overall.
